Mtb MenB inh: blocks the Mycobacterium tuberculosis MenB enzyme; P9WNP5; MenB enzyme assay, absorbance read-out; some hits fall short of the stated cut; inhibition, %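 (about 12 µg/mL by stock and volumes)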; 100,000 tested, 0.43% active;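 active means mean of two replicates above 30%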;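 further: 0% = no compound and 100% = wells with inactive enzyme; the first replicate is given; strong numbers were not always called active; inactives centre near -10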
Target sequence (P9WNP5 whole entry, looked up): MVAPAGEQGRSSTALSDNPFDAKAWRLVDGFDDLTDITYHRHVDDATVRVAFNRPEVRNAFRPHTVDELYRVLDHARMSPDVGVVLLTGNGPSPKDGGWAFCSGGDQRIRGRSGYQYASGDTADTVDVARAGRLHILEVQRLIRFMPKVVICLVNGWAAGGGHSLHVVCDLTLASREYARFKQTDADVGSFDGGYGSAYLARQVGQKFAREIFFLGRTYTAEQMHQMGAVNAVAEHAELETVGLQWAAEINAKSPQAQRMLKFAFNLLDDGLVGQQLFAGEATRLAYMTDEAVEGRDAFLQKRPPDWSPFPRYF
Polio RdRp inh: inhibitors of poliovirus RNA polymerase binding and polymerization; poliovirus polymerase elongation, fluorescence polarization; hits give low values; P03300; 150,000 tested, 0.66% active; % elongation, % (compound at 16.7 µg/mL); in the data active means % elongation below about 90%; further: some results filed as inactive read as strong as hits
MbtI inh: MbtI salicylate synthase inhibition; P9WFX0; purified MbtI enzyme, fluorescence intensity read-out; inhibition, %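 (about 17 µg/mL by stock and volumes)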; 100,000 tested, 0.89% active;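 active means above 50% in both replicates, above 80% if mildly self-fluorescent; inactive means the rest, strongly fluorescent compounds included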;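 further: 0% = mean of negative and 100% = mean of positive controls; one replicate is shown; some compounds called inactive have numbers as strong as hits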
Target sequence (P9WFX0 whole entry, looked up): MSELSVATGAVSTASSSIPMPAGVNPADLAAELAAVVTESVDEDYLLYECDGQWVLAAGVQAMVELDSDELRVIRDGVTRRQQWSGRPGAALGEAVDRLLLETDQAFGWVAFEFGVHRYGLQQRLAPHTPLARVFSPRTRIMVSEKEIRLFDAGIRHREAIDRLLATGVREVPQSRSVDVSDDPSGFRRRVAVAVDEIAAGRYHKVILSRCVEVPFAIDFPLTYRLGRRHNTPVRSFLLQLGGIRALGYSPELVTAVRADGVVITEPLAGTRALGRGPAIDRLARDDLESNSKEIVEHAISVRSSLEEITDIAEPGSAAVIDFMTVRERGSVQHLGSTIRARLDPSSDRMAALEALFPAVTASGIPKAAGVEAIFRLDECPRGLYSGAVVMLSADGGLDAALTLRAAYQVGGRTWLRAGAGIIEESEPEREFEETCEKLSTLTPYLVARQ
Polio RdRp inh intensity: recorded beside Polio RdRp inh, whose call it bears; % elongation; measured here: total intensity read-out; formula for this scale not given here;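 total fluorescence in place of polarization; lower means less elongation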
Starred values were filed as active, the others as inactive; . = no result given; & = joins results of further samples.

Start of the data: the first 13 compounds (preview)
SMILES | Mtb MenB inh | Polio RdRp inh | Polio RdRp inh intensity | MbtI inh
c1ccc2c(CCNC3CCNCC3)c[nH]c2c1 | -15 | 103 | 101 | -3
Cc1ccc(C)c(NC(=S)N(Cc2ccco2)C(C)c2ccco2)c1 (stereo not drawn) | 2 | 100 | 102 | 2
c1ccc(-c2nnc(CSc3nnc(C4CCCCC4)o3)o2)cc1 | -8 | 103 | 104 | -4
COc1cccc(NCc2nnc(SCc3nnc(-c4cc(C)oc4C)o3)n2C2CCCCC2)c1 | -1 | 108 | 99 | 5
Cc1ccc(-n2nc(C)c(C3(O)C(=O)N(CCC(C)C)c4ccccc43)c2N)cc1 (stereo not drawn) | . | 104 | 103 | -1
COC(=O)c1cc2sccc2n1Cc1ccc(C)cc1 | -2 | 102 | 103 | -14
CC1(C)CC(=O)C(C=NCCN2CCOCC2)=C(O)C1 | 6 | 101 | 98 | 18
CC1=CCC(Cc2nc3ccccc3o2)C1(C)C (stereo not drawn) | -10 | 102 | 106 | .
CC(NS(=O)(=O)c1ccccc1)C(=O)NCc1ccc2c(c1)OCO2 (stereo not drawn) | -1 | 100 | 101 | 60
Cc1nnc(N/N=C/C2CC=CCC2)[nH]c1=O (stereo not drawn) | 2 | 104 | 102 | -7
Cc1[nH]c2ccccc2c1C(=O)CN1CCCC1 | 11 | 104 | 110 | 20
CCNc1nc(NCC)n2c(SCC(=O)c3cccc(C(F)(F)F)c3)nnc2n1 | -15 | 102 | 109 | 7
O=C(O)CSCc1csc2c1CCCC2 | -7 | 102 | 105 | -4

The listing (from the top)
SMILES | Mtb MenB inh | Polio RdRp inh | Polio RdRp inh intensity | MbtI inh
c1ccc2c(CCNC3CCNCC3)c[nH]c2c1 | -15 | 103 | 101 | -3
Cc1ccc(C)c(NC(=S)N(Cc2ccco2)C(C)c2ccco2)c1 (stereo not drawn) | 2 | 100 | 102 | 2
c1ccc(-c2nnc(CSc3nnc(C4CCCCC4)o3)o2)cc1 | -8 | 103 | 104 | -4
COc1cccc(NCc2nnc(SCc3nnc(-c4cc(C)oc4C)o3)n2C2CCCCC2)c1 | -1 | 108 | 99 | 5
Cc1ccc(-n2nc(C)c(C3(O)C(=O)N(CCC(C)C)c4ccccc43)c2N)cc1 (stereo not drawn) | . | 104 | 103 | -1
COC(=O)c1cc2sccc2n1Cc1ccc(C)cc1 | -2 | 102 | 103 | -14
CC1(C)CC(=O)C(C=NCCN2CCOCC2)=C(O)C1 | 6 | 101 | 98 | 18
CC1=CCC(Cc2nc3ccccc3o2)C1(C)C (stereo not drawn) | -10 | 102 | 106 | .
CC(NS(=O)(=O)c1ccccc1)C(=O)NCc1ccc2c(c1)OCO2 (stereo not drawn) | -1 | 100 | 101 | 60
Cc1nnc(N/N=C/C2CC=CCC2)[nH]c1=O (stereo not drawn) | 2 | 104 | 102 | -7
Cc1[nH]c2ccccc2c1C(=O)CN1CCCC1 | 11 | 104 | 110 | 20
CCNc1nc(NCC)n2c(SCC(=O)c3cccc(C(F)(F)F)c3)nnc2n1 | -15 | 102 | 109 | 7
O=C(O)CSCc1csc2c1CCCC2 | -7 | 102 | 105 | -4
CN(c1ccccc1)S(=O)(=O)c1c[nH]c(=O)[nH]c1=O | 4 | 100 | 99 | 1
COc1ccc(C2NN(Cc3ccccc3)C3C(=O)N(Cc4ccccc4)C(=O)C23)cc1 (stereo not drawn) | -31 | 100 | 103 | 2
COC(=O)COc1ccc(S(=O)(=O)N2CCC(C)CC2)cc1 | -60 | 101 | 101 | -10
O=C(CSc1ncnc2ccccc12)Nc1ccnn1C1CCCC1 | -34 | 106 | 107 | -4
CCON1C(=O)c2ccccc2C1=O | 10 | 103 | 102 | 2
CCN(CC)c1ccc(-c2n[nH]c(=S)n2-c2ccccc2C)cc1 | -56 | 101 | 98 | 67
Cc1ccc(C2c3c(oc4ccccc4c3=O)C(=O)N2c2ccccn2)cc1 (stereo not drawn) | 14 | 100 | 101 | -3
CCCNC(=O)c1cnn2c(C)c(Cc3ccccc3)c(C)nc12 | -4 | 103 | 109 | 7
CC(=O)Nc1ccc(C(C#N)c2ccccc2)cc1 (stereo not drawn) | -7 | 107 | 109 | .
O=C(CSc1nc(=O)n2ccccc2n1)Nc1ccccc1 | -13 | 102 | 105 | 2
S=c1[nH]nc(CN2CCCC2)n1-c1ccccc1 | -22 | 101 | 103 | 18
Cc1ccc(-c2nn(CCC#N)cc2C#N)cc1 | -18 | 105 | 96 | .
CC(C)(C)NC(=O)Nc1ccc(S(=O)(=O)N2CCCC2)cc1 | -10 | 108 | 103 | -16
O=C(CNS(=O)(=O)c1ccccc1)NCC1CCCO1 (stereo not drawn) | -83 | 101 | 103 | -6
COc1ccc(NC(=S)NN)cc1Cl | -16 | 93 | 98 | 92*
CC(O)c1nc2ccccc2n1C(F)F (stereo not drawn) | 3 | 100 | 107 | -4
O=C(NCCc1ccccc1)c1cc2c(ccc3ccccc32)o1 | -18 | 102 | 104 | 103
Cc1cc(Nc2ccccc2)n(C(C)(C)C)n1 | . | 107 | 104 | 3
COC(CNC(=O)c1c[nH]c2ccc(S(=O)(=O)N3CCOCC3)cc2c1=O)OC | -1 | 100 | 103 | -91
CCCCCC[C@@H]([C@@H](C)O)n1cnc2c(N)ncnc21 | 1 | 101&98 | 103&101 | 4
CCOC(=O)/C(C)=N/Nc1cc(C)cc(C)c1 | -10 | 101 | 99 | 9
COc1ccc(C)cc1NC(=O)c1cc2c(s1)CCC2 | . | 102 | 103 | 22
O=C(/C=N/Nc1nc2ccccc2o1)c1ccccc1 | -29 | 106 | 109 | -10
CN1CCc2c(c3ccccc3n2Cc2ccccc2)C1 | -1&-1 | 100&102&100 | 103&101&101 | 2&-11&-9
Cc1ccccc1OC1OCCOC1Oc1ccccc1C (stereo not drawn) | . | 102 | 96 | -3
CCOc1ccc(OCCCl)cc1 | . | 100 | 94 | -6
Cc1csc(NC(=O)C(NC(=O)c2ccccc2)C(C)C)n1 (stereo not drawn) | . | 104 | 106 | -11
O=C(O)CCC(=O)NC1CCCCC1 | 7 | 103 | 100 | .
O=C1COc2ccccc2N1CC(=O)N(CC1CCCO1)C1CCS(=O)(=O)C1 (stereo not drawn) | -9 | 105 | 110 | 14
CCCCOc1ccc(C(=O)NC2CCN(C)CC2)cc1 | -22 | 101 | 101 | -3
Cc1nc(N)nc2c1CCCC2 | -19 | 103 | 103 | 71
O=C(CSc1nccn1Cc1ccccc1)N1CCN(C(=O)c2cccs2)CC1 | -12 | 105 | 104 | -3
CC1CCCCN1C(=O)c1cccc(C#N)c1 (stereo not drawn) | 4 | 104 | 103 | -3
O=C(c1c(F)cccc1F)N1CCN(C/C=C/c2ccccc2)CC1 | -18 | 97 | 101 | 0
Cc1cccc(N2CCN(c3cccc(C)c3)C2c2cccnc2)c1 | -31 | 103 | 101 | -9
CCC(=O)N1CCN(c2nc(C(C)C)nc3sc4c(c23)CCCC4)CC1 | -6 | 101 | 102 | 1
Cc1ccc(C(=O)OCC(=O)NC2CCCCC2)s1 | . | 102 | 99 | -11

Exported with tabs: part of the list above
SMILES	Mtb MenB inh	Polio RdRp inh	Polio RdRp inh intensity	MbtI inh
Cc1cccc(N2CCN(c3cccc(C)c3)C2c2cccnc2)c1	-31	103	101	-9
O=C(CSc1nccn1Cc1ccccc1)N1CCN(C(=O)c2cccs2)CC1	-12	105	104	-3

(list continues)
SMILES | Mtb MenB inh | Polio RdRp inh | Polio RdRp inh intensity | MbtI inh
COc1cc(CO)c(CC(=O)NN)cc1OC | -9 | 102 | 104 | -3
N#Cc1cccc(C(=O)NCCc2ccc3c(c2)OCCO3)c1 | 5 | 101 | 102 | 25
Cc1[nH]c2ccccc2c1Cc1n[nH]c(=S)o1 | -18 | 99 | 98 | 23
Cc1cccc(C(=O)OCCN2CCOCC2)c1 | 7 | 105 | 106 | .
COc1ccc(S(=O)(=O)NCc2ccc(C(=O)N(C)Cc3ccco3)cc2)cc1 | -47 | 103 | 95 | 2
Clc1cccc2c(NCCCN3CCOCC3)cnnc12 | 7 | 101 | 101 | -9
O=C1OC(c2ccccc2)=N/C1=C/c1ccco1 | -36 | 103 | 100 | -1
O=C(O)c1ccccc1N=Cc1c(O)[nH]c2ccccc12 | -163 | 101 | 93 | 14
CCSC1=NN2CCS(=O)(=O)N=C2S1 | -6 | 102 | 110 | -5
Cc1ccccc1NC(=O)Cc1nc(COC(=O)/C=C/c2ccco2)cs1 | -43 | 104 | 102 | 4
CC(C)c1cc(=O)[nH]c(SCc2nc3ccccc3[nH]2)n1 | -41 | 101 | 100 | -8
CC(Cn1nnc2ccccc21)C(=O)O (stereo not drawn) | -22 | 102 | 106 | -9
O=C(CSc1nc(-c2ccco2)cc(C(F)(F)F)n1)Nc1ccccc1 | -15 | 103 | 104 | -12
COc1cc(C(=O)Nc2ccc(N3CCCCC3C)cc2)cc(OC)c1OC (stereo not drawn) | -13 | 101 | 105 | 5
Cc1cccc(/C=N/n2c(C)nnc2C)c1 | 12 | 101 | 101 | 4
CCNc1nc(N2CCOCC2)c2ccccc2n1 | -18 | 100 | 101 | 89
Cc1cccc(N=c2oc3cc(O)ccc3cc2C(N)=O)c1 | -124 | 100 | 119 | 33
CCc1ccc(N2COc3ccc4c(CC)cc(=O)oc4c3C2)cc1 | 5 | 102 | 103 | 19
CCC(C)NC(C)C(=O)Nc1ccc(Cl)cc1Cl (stereo not drawn) | 1 | 103 | 101 | -10
CC(Sc1ccc2c(c1)OCCO2)C(=O)Nc1ccc2c(c1)OCCO2 (stereo not drawn) | -11 | 98 | 108 | -14
CCCc1nnc(SCc2ccccc2C#N)o1 | -14 | 103 | 103 | -12
CC(C)(C)C(=O)C1=C(O)C(=O)N(c2ccccc2)C1c1ccccc1 (stereo not drawn) | -13 | 101 | 99 | -2
NC(=O)C1CCN(Cc2nc3ccccc3c(=O)[nH]2)CC1 | 3 | 104 | 101 | -18
CC1(C)CN(C(=S)Nc2ccc(F)cc2F)C1=O | 3 | 101 | 98 | 0
CC(C#N)(NC(=O)CN1CCN(S(=O)(=O)c2ccccc2Cl)CC1)C1CC1 (stereo not drawn) | -19 | 106 | 101 | -13
CCOc1ccccc1N(CC(=O)NC)S(C)(=O)=O | -3 | . | . | -32
Cc1ccc(Cn2c(C3CC(=O)N(c4ccccc4)C3)nc3ccccc32)cc1 (stereo not drawn) | -19 | 102 | 108 | -7
Cc1cccc(OCc2nnc(SCn3nnc4ccccc4c3=O)o2)c1 | -2 | 99 | 108 | -3
CCSC1=N/C(=C\c2ccc(N(C)C)cc2)C(=O)S1 | -75 | 89 | 171 | 4
CC[C@]12C=CCN3CCC4(c5ccc(OC)cc5N(C)[C@H]4C(O)(C(=O)OC)[C@@H]1OC(C)=O)C32 (stereo partly drawn) | 3 | 102 | 104 | -2
CCOC(=O)C1C(C)=NC(=O)NC1C (stereo not drawn) | -20 | 102 | 108 | .
CC(C)C(=O)Nc1ccc(-c2csc(N)n2)cc1 | 16 | 103 | 105 | 19
NC(=O)C1(Nc2ccccc2)CCCCC1 | 9 | 100 | 104 | -10
COC(=O)c1cc2c(ccn2C)n1CC(=O)N(C1CCCCC1)C1CCCCC1 | 14 | 102 | 103 | 8
O=C(NCCCN1CCN(c2ccc(F)cc2)CC1)c1ccc2nc3ccccc3c(=O)n2c1 | -18 | 102 | 100 | -5
CCOC(=O)c1nn(-c2ccc(OC)cc2)c(C(=O)OCC)c1NC(=O)C1CCCCC1 | -16 | 102 | 106 | -18
C#Cc1ccc(NC(=O)CCc2cc(OC)no2)cc1 | 6 | 102 | 103 | -9
CC(O)c1nc2ccccc2n1CC(=O)C(C)(C)C (stereo not drawn) | . | 99 | 106 | -4
Cc1nn(-c2ccccc2)c(N2CCCC2)c1/C=N/NC(=O)c1ccccc1O | -46 | 103 | 107 | -28
CN1CCN(C(=O)C2CCC(C)(C(=O)O)C2(C)C)CC1 (stereo not drawn) | -8 | 102 | 90 | .
O=C(COCc1cc(-c2ccc3c(c2)OCO3)on1)Nc1cc(F)ccc1F | -16 | 101 | 103 | 10
Cn1ccnc1SCC(=O)N1c2ccccc2CCc2ccccc21 | -4 | 102 | 108 | .
COc1cccc2c(=O)c(NC(=O)N3CCC(CO)CC3)c[nH]c12 | -1 | 101 | 103 | 116
CC(C)NC(=O)CC#N | 6 | 102 | 107 | -12
CCN(CC)C(=O)CSc1ncnc2c1cnn2-c1ccccc1 | 4 | 99 | 106 | 5
CCN1C(=O)c2ccccc2Sc2ccc(C(=O)NCc3ccccc3)cc21 | -1 | 103 | 98 | 3
N=c1n(CC(N)=O)c2ccccc2n1Cc1ccccc1Cl | 12 | 103 | 101 | -4
O=C(c1ccc(NS(=O)(=O)c2ccc3[nH]c(=O)[nH]c3c2)cc1)N1CCN(c2ccc(F)cc2)CC1 | -13 | 106 | 106 | 17
Cc1c(-c2ccc(Cl)cc2)nc(N)c(C#N)c1-c1ccco1 | -54 | 105 | 111 | 56
O=C(Cn1c(=O)cnc2ccccc21)NCCc1ccccc1 | -10 | 103 | 99 | 38

Remaining list, next part.
SMILES | Mtb MenB inh | Polio RdRp inh | Polio RdRp inh intensity | MbtI inh
Cc1ccccc1-c1n[nH]n2c1nc(=O)c1cc(Cl)ccc12 | 1 | 104 | 103 | 6
COc1ccc2c(c1)c(C(=O)CSc1ccccc1)c(C)n2C | -22 | 98 | 102 | .
CCn1c(CN2CCCCC2)nc2cc(S(=O)(=O)N3CCCCC3)ccc21 | -37 | 101 | 102 | 3
Cc1ccc(CSc2nnc(-n3c(=O)c(C#N)cc4c(=O)n5ccccc5nc43)s2)cc1 | 1 | 99 | 108 | 19
c1ccc(Cn2c(Nc3ccccc3)nc3ccccc32)cc1 | -19 | 99 | 103 | -143
Cc1ccc(S(=O)(=O)Nc2cncc(C(=O)NC3CCCC3)c2)cc1 | 9 | 104 | 107 | -12

Source: PubChem BioAssay

Compounds were not picked by outcome (roughly 1.8% active in at least one column).
